Mtb growth: Confirmatory growth inhibition assay against Mycobacterium tuberculosis H37Rv, potency (AID 1949); inhibition, % at 10 µg/mL, or IC50 in µg/mL where a hit was titrated; most inactive calls were filed without a number and no value below 0 was filed; actives 1.6% (n = 100,000);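 active means confirmed in a dose series; inconclusive means about 50% or more but not retested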;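 further: bacteria grown 7 days with compound before Alamar blue readout; 0% = untreated bacteria and 100% = reference antibiotic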
* = called active by the depositor; i = inactive; ? = inconclusive. Only part of the results is shown. The share of hits here may be higher or lower than overall.

SMILES,Mtb growth
CC(=O)NC12CC3(C)CC(C)(CC(O)(C3)C1)C2,i
COC(=O)CCSc1ncnc2c1sc1nc(N3CCOCC3)c3c(c12)CCCC3,i
Cc1ccc(-c2nnc(N3CCOCC3)c3ccccc23)cc1S(=O)(=O)N(C)C,i
COc1ccc(NC(=O)c2cc3c(n(-c4ccc(C)cc4)c2=O)CCCC3=O)cc1,i
O=C1CSC(c2cccc([N+](=O)[O-])c2)c2c(-c3ccccc3)nn(-c3ccccc3)c2N1 (stereo not given),1%
CC12CN3CC(C)(CN(C1)C3c1ccc3c(c1)OCO3)C2 (stereo not given),i
CCc1ccc(CCC(=O)Nc2ccc(Br)cc2)o1,?
COc1ccc(Cl)cc1NC(=O)CN(c1ccc(Cl)c(C(F)(F)F)c1)S(C)(=O)=O,6%
CCCN1CCN(C(=S)Nc2ccc(C(=O)OCC)cc2)CC1,i
Cc1cccc(C(C)C)c1NC(=O)C(Cl)(Cl)Cl,i
CCc1ccccc1N1CCN(S(=O)(=O)c2ccc(F)c(C)c2)CC1,i
NC(=O)c1ccccc1OCC(=O)Nc1cccc(I)c1,i
N#C/C(=C/c1ccc(Cl)cc1Cl)c1ccc(C#N)cc1,i
Cc1nc(-c2ccc(NC(=O)c3cccs3)cc2)cs1,i
CN1CCc2nc(SCC(=O)c3ccc(Br)cc3)c(C#N)c(-c3ccsc3)c2C1,39%
N#Cc1c(Nc2ccccc2)ccn(CC(=O)c2ccccc2)c1=O,i
COCC(=O)NNC(=O)Nc1ccccc1C(F)(F)F,i
CN1CCN(C(=S)c2cn(CCOc3ccccc3F)c3ccccc23)CC1,5%
Cc1cccc(NC(=O)CCCC(=O)Nc2cccc(C)c2)c1,i
O=C(Nc1ccccc1)c1ccc(N2CCN(c3ccccn3)CC2)c(S(=O)(=O)N2CCOCC2)c1,i
O=C(N1CCN(c2ccc(F)cc2)CC1)N(c1ccccc1)c1ccccc1,i
O=C(CSc1nnc(-c2ccc(Cl)cc2Cl)n1C1CCCCC1)Nc1ccccc1Cl,8%
Cc1cc(OCC(=O)Nc2ccccc2C(N)=O)c(C(C)C)cc1Br,6%
CC(C)(C)c1ccc(OCC(=O)Nc2ccc(S(=O)(=O)N3CCCCC3)cc2)cc1,i
O=C(COc1ccc(Cl)cc1Cl)Nc1cccc(-c2nnc(-c3ccccc3)o2)c1,i
Cc1ccc(C)c(NC(=S)N2CCN(C(=O)C3CCCO3)CC2)c1 (stereo not given),i
O=C(NCCCN1CCc2ccccc2C1)Nc1ccc(Cl)cc1,i
COc1ccc(NC(=O)c2ccco2)cc1NC(=O)c1cccnc1,i
O=C(O)Cn1c2ccccc2c2nc3ccccc3nc21,i
COc1ccc(Nc2oc(COc3cccc(C)c3)nc2C#N)cc1,3%
COc1ccccc1N(CC(=O)Nc1ccccc1C(=O)NC(C)C)S(C)(=O)=O,i
COc1ccc(CSc2nnc(-c3cccnc3)s2)cc1Br,i
CCOc1ccccc1C1NC(=O)NC(C)=C1C(=O)Nc1ccc(Br)cc1 (stereo not given),i
CC(C)Oc1ccc(Cc2n[nH]c(=S)n2-c2ccccc2)cc1,i
COc1ccc2c(=O)c(-c3ccccc3)coc2c1,6%
CCCn1c(SCC(=O)Nc2ccc(Cl)cc2Cl)nnc1-c1ccncc1,i
CCCNC(=O)N1CCN(C(=O)OCC)CC1,7%
Cc1cc(NC(=O)c2ccco2)c(C)cc1I,0%
N#Cc1c(N2C(=O)C3ON(c4ccccc4)C(c4ccccc4)C3C2=O)sc2c1CCCC2 (stereo not given),1%
N#Cc1cccc(Oc2ccc(Br)cc2)c1C#N,7%
Cc1ccccc1NC(=O)c1nc[nH]c1C(=O)NCc1ccccc1,?
CS(=O)(=O)N1CCc2cc(S(=O)(=O)N3CCN(Cc4ccc5c(c4)OCO5)CC3)ccc21,i
CCn1c(SC/C=C/c2ccccc2)nnc1-c1ccncc1,i
CCOc1ccccc1NC(=O)Nc1ccc(C)cc1,3%
CCCCOc1ccc(NC(=O)CC2CCOCC2)cc1,4%
CC(=O)Nc1ccc(NC(=S)NC(=O)c2sc3ccccc3c2Cl)cc1,i
O=C(NCCc1ccccc1)C1CCCCC1,i
CCOC(=O)c1ccc(NC(=O)C2CCN(C(=O)c3ccc(Cl)cc3Cl)CC2)cc1,i
O=C(/C=C/Nc1ccccc1C(F)(F)F)c1ccc(Br)cc1,i
CC(C)CC(=O)Nc1ccccc1N1CCN(C(=O)c2ccc(Cl)cc2)CC1,4%
CSc1cccc(NC(=O)CN(c2ccccc2)S(C)(=O)=O)c1,i
Cc1cccc(C(=O)N2CCN(c3ccccc3F)CC2)c1[N+](=O)[O-],i
Cc1ccnc(NS(=O)(=O)c2ccc(NC(=O)Cc3cccs3)cc2)n1,i
COc1cc2c(cc1OC)CN(C(=O)c1sc3nc4c(c(C(F)(F)F)c3c1N)CCC4)CC2,27%
CC(=O)Nc1cccc(/C(C)=N/N=C2/NC(=O)C(CC(=O)Nc3ccc(Cl)cc3)S2)c1 (stereo not given),i
Cn1c(=O)n(Cc2ccccc2Br)c2ccccc21,6%
CC(C)C(=O)Nc1cccc(NC(=O)Cc2ccc(Cl)cc2)c1,i
CCOc1cc(CO)ccc1OCCO,i
Cc1ccc(C(=O)NC(=S)NCc2cccnc2)c(C)c1,i
Cc1ccc2c(c1)c1c3n2CCN(S(C)(=O)=O)C3CCC1 (stereo not given),i

No new results follow: an excerpt of the list.
SMILES,Mtb growth
CC(C)C(=O)Nc1cccc(NC(=O)Cc2ccc(Cl)cc2)c1,i
CCOc1cc(CO)ccc1OCCO,i
Cc1ccc(C(=O)NC(=S)NCc2cccnc2)c(C)c1,i
Cc1ccc2c(c1)c1c3n2CCN(S(C)(=O)=O)C3CCC1 (stereo not given),i

Later entries.
SMILES,Mtb growth
CC1(C)Cc2c(c(N3CCOCC3)nc3sc4c(ncn5c(=S)[nH]nc45)c23)CO1,i
Cc1cc(C)c(CCl)c(C)c1C=C(C#N)C#N,1%
Cn1c(SCC(=O)c2ccc(Cl)cc2Cl)nnc1-c1cccnc1,i
O=C1c2ccccc2C(=O)N1CCc1nc(-c2ccccc2)cs1,0%
CC(Nc1n[nH]c(=O)[nH]c1=O)C(=O)N/N=C/c1ccc(Br)cc1 (stereo not given),i
COC(=O)Nc1ccc2c(c1)C(=O)NC2=O,i
CCc1ccccc1NC(=O)C1CCN(S(=O)(=O)c2ccc(C)cc2)CC1,i
COc1ccc(S(=O)(=O)Nc2ccccc2C(=O)N2CCCC2)c(Cl)c1Cl,i
Cc1ccccc1NC(=O)c1c(NC(=O)c2cccs2)sc2c1CCCC2,i
Cn1c(SCC(=O)c2ccc3ccccc3c2)nnc1-c1ccc(N)cc1,i
O=C(CCN1C(=O)c2ccccc2C1=O)Nc1ccccc1C(=O)N1CCCCC1,i
CCOC(=O)c1ccc(NC(=S)N2CCN(c3ncccn3)CC2)cc1,i
CC(=O)Nc1cccc(-c2csc(Nc3ccc(O)cc3C)n2)c1,i
O=C(CNC(=O)C1CCCCC1)Nc1nc(-c2ccccc2)cs1,i
COc1cccc2cc(C(=O)NCc3cccs3)c(=O)oc12,i

Molecules above containing a cyano group:
SMILES,Mtb growth
N#C/C(=C/c1ccc(Cl)cc1Cl)c1ccc(C#N)cc1,i
CN1CCc2nc(SCC(=O)c3ccc(Br)cc3)c(C#N)c(-c3ccsc3)c2C1,39%
N#Cc1c(Nc2ccccc2)ccn(CC(=O)c2ccccc2)c1=O,i
COc1ccc(Nc2oc(COc3cccc(C)c3)nc2C#N)cc1,3%
N#Cc1c(N2C(=O)C3ON(c4ccccc4)C(c4ccccc4)C3C2=O)sc2c1CCCC2 (stereo not given),1%
N#Cc1cccc(Oc2ccc(Br)cc2)c1C#N,7%
Cc1cc(C)c(CCl)c(C)c1C=C(C#N)C#N,1%

(further entries)
SMILES,Mtb growth
O=C1CNC(=O)N1Cc1ccc(Br)cc1,i
CC1CCCCC1NC(=O)C(=O)NCc1ccc2c(c1)OCO2 (stereo not given),i
COC(=O)c1cc(OC)c(OC)cc1NS(=O)(=O)c1ccc2ccccc2c1,i
S=c1nc(C2CC2)[nH]c2ccccc12,9%
COc1ccc(OC)c(N(CC(=O)O)S(=O)(=O)c2ccccc2)c1,i
COc1ccc(-c2c(C)oc3cc(OCc4cccc(OC)c4)ccc3c2=O)cc1,22%
N#Cc1cc2c(nc1SCC(=O)Nc1ccc(S(=O)(=O)Nc3nccs3)cc1)CCCCC2,i
Cc1cc(Br)ccc1NC(=O)C1CCCO1 (stereo not given),i
COc1ccc(C(=O)NC(=S)NC(C)(C)C)cc1Br,9%
Cn1nc(-c2ccc(N3CCCCC3)c([N+](=O)[O-])c2)c2ccccc2c1=O,i
CCc1ccc(OCC(=O)Nc2ccccc2NC(C)=O)c(Br)c1,i
CC(=O)Nc1ccc(NS(C)(=O)=O)cc1,i
CC1=C(C(=O)Nc2ccc(C)cc2)C(c2ccc(Br)cc2)NC(=S)N1 (stereo not given),26%
COC(=O)c1sccc1NC(=O)C(c1ccccc1)c1ccccc1,i
CC(C)C(C(=O)N1CCCCCC1)N1C(=O)c2ccccc2C1=O (stereo not given),16%
CC(=O)c1c(-c2ccccc2)nc2n(C)c3ccccc3n12,i
O=S(=O)(N1CCCCC1)N1CCCN(S(=O)(=O)N2CCCCC2)CC1,i
C=CCNc1cc(N2CCN(S(C)(=O)=O)CC2)ccc1[N+](=O)[O-],i
Cc1cc(C)nc(/N=C(/NC(=O)C(Cc2ccccc2)N2C(=O)C3CCCCC3C2=O)Nc2ccccc2F)n1 (stereo not given),i
CC1(C)CC(=O)c2cnc(NCCc3ccccc3)nc2C1,i
COc1ccc(N2CCN(C(=O)c3cc(-n4cnnc4)ccc3Cl)CC2)cc1,i
Cc1cc(C)n(-c2nc3ccccc3nc2-n2nc(C)cc2C)n1,i
CCOc1cc(C)c(S(=O)(=O)NC2CCCCCC2)cc1C,1%
N#Cc1c(N)sc2c1C1CCN2CC1,i
Cc1ccc(C(=O)NCc2nnc(SCC(=O)Nc3nccs3)n2C)cc1,i
COC(=O)c1ccc(NC(=O)c2cc(C)cc(C)c2)cc1,45%
COc1ccc(C(=O)N2CCCC2)cc1,i
Cc1ccc(Cl)cc1N1CCN(C(=O)CN(c2cccc(Br)c2)S(C)(=O)=O)CC1,0%
c1ccc(C2CCC(N3CCC(N4CCCC4)CC3)CC2)cc1 (stereo not given),i
Cc1cc(C)c(NC(=O)CN2CCC(O)CC2)c(C)c1,1%
COC(=O)c1c(NC(=O)Cc2ccc([N+](=O)[O-])cc2)sc(C)c1C,4%
Cc1cccc(NS(=O)(=O)c2ccc(Br)s2)c1,6%
CCc1cc(Br)ccc1OCC(=O)O,i
Cc1c(C=O)c2ccccc2n1CC(=O)NC(C)(C)C,i
O=c1oc2ccccc2n1Cc1c(F)cccc1Cl,i
O=S(=O)(Nc1ccc(F)c(F)c1)c1ccc(Br)s1,i
C=CCOc1c(Br)cc(C=O)cc1OC,i
CCCS(=O)(=O)N1CCN(CCN2C(=O)c3cccc4cccc(c34)C2=O)CC1,4%
COC(=O)CN1C(=S)N(c2cccc(C(F)(F)F)c2)C(=O)C1CC(=O)Nc1ccc(Cl)cc1 (stereo not given),i
Cc1nnc(NC(=O)C(C)Oc2cccc(Cl)c2)s1 (stereo not given),i
O=C(Nc1ccc(F)c(Cl)c1)c1ccc(-c2ccc(Br)cc2)o1,i
COc1ccccc1NC(=O)C1CCC(=O)N1 (stereo not given),i
COc1ccccc1C(=O)NC(=S)Nc1cccc(C)n1,i
Brc1cccc(-c2nnc(SCc3nnc(-c4ccccc4)o3)o2)c1,41%
CCOC(=O)Cn1nnc(-c2ccc(OCc3ccccc3C)cc2)n1,<0.1µg/mL*
Cc1c(Nc2ncnc3sc4c(c23)CCCC4)c(=O)n(-c2ccccc2)n1C,i
CCN(CC)c1cc(N2CCOCC2)c([N+](=O)[O-])cc1F,i
CCOC(=O)NC(=O)CSc1nc(C(C)(C)C)cc(C(F)(F)F)c1C#N,i
COc1ccc(-n2c(SCC(=O)c3cccc(OC)c3)nc3sc4c(c3c2=O)CCCC4)cc1,i
COc1ccc(S(=O)(=O)N(CCc2ccccc2)CC(=O)O)cc1OC,i
COc1ccc(OCc2nc(N)nc(Nc3cccc(C)c3C)n2)cc1,i
CCOc1ccc(N2C(=O)CC(N3CCC(C(N)=O)(N4CCCCC4)CC3)C2=O)cc1 (stereo not given),i
COc1ccc(C(=O)COc2ccc(NC(C)=O)cc2)cc1,i
NS(=O)(=O)c1ccc(NC(=S)NC(=O)COc2ccc([N+](=O)[O-])cc2)cc1,i
CCc1ccc(OCC(=O)NC2CCCC2)c(Br)c1,39%
CN(C)c1cc(-n2cccn2)nc(-c2ccccc2)n1,i
Cc1ccccc1NC(=O)CSc1ncnc2sc(-c3ccccc3)cc12,i
Cc1ccc(NC(=S)NCCc2ccccc2)c(C)c1,i
Cc1c(NC(=O)CSc2nc3c(c(=O)n(C)c(=O)n3C)n2Cc2ccccc2F)c(=O)n(-c2ccccc2)n1C,4%
O=C(COc1ccc2ccccc2c1)Nc1ccccc1-c1ccccc1,i

Remaining list, next part.
SMILES,Mtb growth
Cc1cccc(C(=O)Nc2ncc(CN3CCOCC3)s2)c1,1%
COc1cc(S(=O)(=O)Nc2ccccc2C(=O)O)c(OC)cc1Cl,i
CCCN1CCN(C(=S)Nc2ccc(F)cc2F)CC1,i
CCC(C)c1ccccc1NC(=S)NC(=O)c1cc(Cl)cc(Cl)c1OC (stereo not given),10%
CC(C)(C)Cc1nnc(NC(=O)c2ccccc2[N+](=O)[O-])s1,i
